# Compound activity deposited in PubChem BioAssay by several laboratories.
# MLL AF4-AF9 inh = blocks AF4 peptide binding to human AF9; AlphaScreen, biotin-AF4 peptide binding to FLAG-AF9; inhibition, % at 10 µM; 0.47% of 350,000 active; P42568;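 active = every replicate reaching a set inhibition limit, whatever the replicate mean, cut at about 25% in these data; inconclusive = mean inhibition reaches that limit but some replicates miss it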;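 note: 0% = plate neutral control median and 100% = total signal loss; the record names both 10 and 1 µM as test concentration; the first replicate is given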
# Target sequence (P42568 whole entry, looked up): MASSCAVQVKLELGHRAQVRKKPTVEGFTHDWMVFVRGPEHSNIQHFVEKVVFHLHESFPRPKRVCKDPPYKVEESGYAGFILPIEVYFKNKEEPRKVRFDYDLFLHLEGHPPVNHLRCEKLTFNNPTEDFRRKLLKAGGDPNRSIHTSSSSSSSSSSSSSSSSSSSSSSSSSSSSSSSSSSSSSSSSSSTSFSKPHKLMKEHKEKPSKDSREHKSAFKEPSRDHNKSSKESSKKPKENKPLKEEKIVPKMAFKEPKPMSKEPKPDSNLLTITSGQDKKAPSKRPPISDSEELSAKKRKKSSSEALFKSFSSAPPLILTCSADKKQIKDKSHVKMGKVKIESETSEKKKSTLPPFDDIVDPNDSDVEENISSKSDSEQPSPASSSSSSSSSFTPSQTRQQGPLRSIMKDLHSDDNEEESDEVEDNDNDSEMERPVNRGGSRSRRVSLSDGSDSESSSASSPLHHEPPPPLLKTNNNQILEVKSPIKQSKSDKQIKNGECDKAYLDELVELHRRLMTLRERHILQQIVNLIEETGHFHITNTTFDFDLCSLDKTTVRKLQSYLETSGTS
# Ecoli growth = E. coli growth inhibition; Escherichia coli growth, OD600, 23 h; stronger effect = lower value; AID 1053175; 0.21% of 330,000 active; OD600 absorbance (test concentration not listed);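 active = OD600 absorbance below the run mean of sample wells minus 3.6 SD, in any replicate, cut at about 0.56 in these data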;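 note: stock transfer was 300 nL into about 60 µL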
# HNF4A DNA FP = change in binding of human HNF4 alpha to DNA; P41235; HNF4a-FITC DNA binding, fluorescence polarization, 1 h; activity change, % at 10 µM; 0.3% of 360,000 active; in the data active = activity change above about 30%, passing the limit was not always enough;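 note: controls were the assay level and a saturating level of protein; the project sought stronger binding though the title names inhibitors; some compounds called inactive have numbers as strong as hits; positive values seem to mean higher polarization but the record does not say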
# Target sequence (P41235 whole entry, looked up): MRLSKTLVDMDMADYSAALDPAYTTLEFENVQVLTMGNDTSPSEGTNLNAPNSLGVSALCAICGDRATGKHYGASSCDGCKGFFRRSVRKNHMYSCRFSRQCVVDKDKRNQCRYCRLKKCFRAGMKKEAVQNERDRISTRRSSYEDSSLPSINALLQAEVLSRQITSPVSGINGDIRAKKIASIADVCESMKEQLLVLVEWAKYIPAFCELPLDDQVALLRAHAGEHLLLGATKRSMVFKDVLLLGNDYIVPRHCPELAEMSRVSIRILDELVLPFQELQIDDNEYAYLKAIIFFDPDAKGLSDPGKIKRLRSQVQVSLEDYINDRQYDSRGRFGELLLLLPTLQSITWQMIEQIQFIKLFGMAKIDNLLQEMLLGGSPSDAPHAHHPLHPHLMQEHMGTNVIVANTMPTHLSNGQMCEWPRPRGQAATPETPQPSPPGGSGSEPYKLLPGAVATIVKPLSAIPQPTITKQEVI
# ALR H2O2 inh = human ALR oxidase inhibition via reduced H2O2 | P55789 | purified ALR, DTT oxidation, H2O2 HRP-luminol luminescence | inhibition, % (test concentration not listed) | 3.8% of 290,000 active | AID 485317;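 active = mean and each replicate at 75% or more; inconclusive = only one of the two met; inactive = neither met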;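 note: stock transfer was 7.5 nL into about 7.5 µL; 0% = neutral wells and 100% = wells with inactivated enzyme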
# FGF22 binding = shifts melting point of recombinant human FGF22 | recombinant FGF22 thermal shift, SYPRO orange fluorescence; percent of sucrose octasulfate shift, DMSO zero | calls only at 9.99 µM | 1.5% of 340,000 active;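 active = melting point raised past a set limit in the mean and every replicate; inconclusive = no clear call; three in four hits are not shown here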
# Ecoli rRNA inh = selective bacterial rRNA inhibition in E. coli; E. coli WT GFP vs humanized-ribosome RFP mutants, fluorescence, 24 h; stronger effect = lower value; DMSO median 0, no signal -100; GFP signal change (wild-type ribosome), % (concentration not given with the values); 1.6% of 350,000 active; AID 720706;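 active = significant combined selectivity score with lowered wild-type GFP, culture density cut under 30%, mutant RFP and density less affected; inactive = any of these conditions unmet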; note: one replicate is shown; some compounds called inactive have numbers as strong as hits
# Vif TR-FRET = HIV-1 Vif–A3G interaction blockers – biochemical, TR-FRET, GST-Vif 1-94, biotin-A3G peptide, dose response retest, primary screen (AID 1117319). TR-FRET GST-Vif / biotin-A3G peptide binding; higher % means a stronger effect; test concentration not given here; strong numbers were not always called active. inhibition, %; hits with a dose series show IC50 in µM. 0.57% of 260,000 active;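 active = above the screen mean plus three standard deviations and confirmed in dose response; inconclusive = results disagree or hit not tested in dose response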;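 note: Vif residues 1-94 fused to GST binding biotinylated APOBEC3G peptide 110-148; 0% = full assay without inhibitor and 100% = GST in place of GST-Vif; retest series ran down from 100 µM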
# Ecoli rRNA inh OD600 = second read-out of Ecoli rRNA inh, no call of its own (marks repeat the call); OD600 change, %; measured here: OD600 growth;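 optical density of the mix in the first replicate; 0 = DMSO median and -100 = no signal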
# Ecoli rRNA inh RFP = recorded beside Ecoli rRNA inh, whose call it bears; RFP signal change, %; measured here: RFP humanized mutant strains;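 first replicate; 0 = DMSO median and -100 = no signal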
# The depositor's hits bear a star; i = inactive; ? = inconclusive; · = not tested or not shown.
smiles	Ecoli growth	Ecoli rRNA inh	FGF22 binding	MLL AF4-AF9 inh	Ecoli rRNA inh RFP	Vif TR-FRET	Ecoli rRNA inh OD600	HNF4A DNA FP	ALR H2O2 inh
CC(C)(C)C1CCc2c(sc(NC(=O)CSc3ncn[nH]3)c2C#N)C1 (configuration not stated)	0.74	·	·	·	·	2%	·	2.4	-1
CCOC(=O)c1c(NC(=O)COC(=O)CCCOc2ccc(OC)cc2)sc(C(=O)NC)c1C	0.72	11	i	-0.7	5.3	-17%	11	1.6	0
COc1ccc(C(=O)OCC(=O)Nc2nc3c(F)c(F)c(F)cc3s2)cc1OC	0.69	8	i	-1.1	-2.3	-19%	7	5.8	26
COC(=O)C1=C(CN2CCCc3ccccc32)NC(=O)NC1c1ccc(F)cc1 (configuration not stated)	0.72	·	·	·	·	16%	·	1.2	-3
Cc1ccc(S(=O)(=O)N2CCN(C(=O)c3ccc(N4CCCCC4)c([N+](=O)[O-])c3)CC2)cc1	0.71	-3	i	14	4.4	·	-5	2.1	-11
CCC(=O)N1CCC2(CC1)CN(Cc1cc(F)ccc1F)[C@H](CO)c1[nH]c3cc(OC)ccc3c12	·	4	i	-7.5	1.2	·	-1	·	·
COc1ccccc1N1CCN(C(=O)c2[nH]c(C(F)(F)F)nc2-c2ccccc2)CC1	·	-8	i	-8.2	-2.1	·	-14	-1.1	·
Cc1ccccc1NC(=O)c1ccc2c(c1)CCN2S(C)(=O)=O	0.63	11	i	-0.5	1.3	·	15	1.9	-10
Cn1cnnc1SCC(=O)Nc1ccc(S(=O)(=O)N2CCOCC2)cc1	0.73	6	i	4.7	-3.2	0%	17	-0.7	-2
NS(=O)(=O)c1cccc(NC(=O)CSc2nnc(C3CC3)n2-c2ccccc2)c1	0.72	-4	i	-4.1	-2.1	-11%	1	1.5	-6
Cc1cc(N2CCCCC2)nc(N2CCCCC2)n1	0.68	6	i	-0.1	1.4	3%	12	3.5	2
O=C1C2CCCN2C(=O)N1CCCN1CCN(c2cccc(Br)c2)CC1 (configuration not stated)	0.69	-7	i	2.4	-3.3	·	-5	-0.9	85*
COc1cc(/C(C)=N\NC(=O)CSc2nc3ccccc3n2C)ccc1O	·	-4	i	6.5	0.5	-6%	2	1.3	99*
Cc1nn(C)cc1NC(=O)C[C@H]1CC[C@H]2[C@H](COc3ccc(NC(=O)Nc4cccc(Cl)c4)cc3C(=O)N2C)O1	·	-1	i	4.6	5.7	·	-10	·	·
O=C(Nc1nnc([C@@H]2C[C@H](O)[C@@H](CO)O2)s1)NC(c1ccccc1)c1ccccc1	·	-9	i	-0.3	2.6	·	-8	1.2	·
COc1ccccc1N1CCN(C2CCN(C(=O)c3ccc(F)cc3)CC2)CC1	0.69	8	i	-8.6	0.0	32%	6	5.0	5
Nc1ccc(S(=O)(=O)c2ccc(NC(=O)c3cccnc3)cc2)cc1	0.63	-1	i	-0.2	-0.4	10%	-11	-1.2	·
CCn1c(C)nc2cc(C(=O)N/N=C/c3ccc(O)c(O)c3O)ccc21	·	·	i	-4.0	·	0.52µM*	·	-1.0	·
CCN(CC)S(=O)(=O)c1cccc(-c2n[nH]c(=S)n2CC(C)C)c1	0.65	-26	·	-5.5	2.3	-1%	-27	-1.4	21
CCOC(=O)C1=C(N)N2C(=O)C(C)SC2=C(C(=O)OCC)C1c1ccccc1 (configuration not stated)	0.8	·	·	·	·	26%	·	1.7	6
CCOC(=O)[C@@H]1CSCCS(=O)(=O)N1Cc1ccc(C(F)(F)F)cc1	·	-2	i	-2.2	-1.5	·	2	·	·
CCOC(=O)C1=CN(Cc2ccco2)S(=O)(=O)N(CC)C1c1ccccc1 (configuration not stated)	0.66	-10	i	3.6	-0.2	0%	-14	-2.4	·
Cc1ccc(CSCCC(=O)NCCC2=CCCCC2)cc1	0.68	·	·	·	·	-3%	·	3.8	-14
O=C(C[C@@H]1C=C[C@H](NC(=O)c2ccncc2)[C@@H](CO)O1)NCC1CCCCC1	·	0	i	9.3	-4.3	·	-5	·	·
COc1ccc(C(=O)Nc2ccc(N3CCOCC3)cc2)cc1S(=O)(=O)NC1CCCC1	0.71	-8	i	2.8	-3.0	10%	-23	4.0	16
C[C@@H]1CN([C@@H](C)CO)C(=O)c2c(c3ccccc3n2C)-c2ccccc2CO[C@H]1CN(C)C(=O)N[C@H](C)c1ccccc1	·	0	i	0.1	6.2	·	-7	·	·
CCCCN1C(=O)C(CC(=O)NCC2CCCCC2)CC(C(=O)N(C(C)C)C(C)C)=C1C (configuration not stated)	·	-5	i	-3.2	-0.3	-7%	-17	14	·
Nc1ccc2[nH]c(=S)sc2c1	0.73	9	i	-1.4	-0.3	-5%	13	-12	·
COc1ccc(-n2ncc3c(NCc4cccs4)ncnc32)cc1	0.71	-15	i	-0.3	-1.0	19%	-14	2.6	1
CCOc1ccc(NC(=O)C2CCN(S(=O)(=O)c3cccs3)CC2)cc1	0.62	·	i	2.3	·	·	·	-0.5	-1
O=C(Nc1ccc(Cl)cc1)c1ccc(CN2CCc3ccccc3C2)cc1	0.69	-4	i	-3.6	-2.3	·	-8	1.1	7
CNC(=O)C[C@@H]1CC[C@@H]2[C@H](COc3ccc(NC(=O)Nc4ccccc4)cc3C(=O)N2C)O1	·	4	i	-2.3	1.8	·	11	·	·
CC(C)C#Cc1cnc2c(c1)C(=O)N([C@@H](C)CO)C[C@@H](C)[C@H](CN(C)Cc1ccc3c(c1)OCO3)O2	·	6	i	7.4	4.3	·	-5	·	·
CC(/C=N/NC(=O)c1ccc(Br)cc1)=C\c1ccccc1	·	-2	·	·	-2.6	-1%	0	-3.3	-3
O=C(Cc1csc(-c2ccccc2)n1)NCC(=O)Nc1ccc(F)c(F)c1F	0.69	-1	i	4.3	3.8	-8%	-7	6.0	19
COc1ccccc1CNS(=O)(=O)c1ccc(F)cc1Br	·	-2	i	-3.1	-3.1	·	-12	·	·
CC(=O)OCC1=C(C(=O)O)N2C(=O)C(NC(=O)C(C)Cn3nc(C)c(Cl)c3C)C2SC1 (configuration not stated)	0.64	21	i	-32	2.2	?	14	-14	34
CC(=O)Nc1cccc(NC(=O)C(F)(F)F)c1	0.7	-3	i	-3.3	-0.8	·	4	-1.2	-6
COc1ccc(OCc2ccc(C(=O)N3CCOCC3)cc2)cc1	0.7	-4	i	-5.1	0.2	9%	-5	1.3	-2
O=C(NCc1cccc(F)c1)C1CCC(=O)N(CCc2cccc(F)c2)C1 (configuration not stated)	0.67	-1	i	-2.0	3.5	-5%	-2	2.5	-5

# Full records, quoted from the list.
# `O=C1C2CCCN2C(=O)N1CCCN1CCN(c2cccc(Br)c2)CC1` (configuration not stated) across the screens: Ecoli growth = 0.69; Ecoli rRNA inh = -7; FGF22 binding = i; MLL AF4-AF9 inh = 2.4; Ecoli rRNA inh RFP = -3.3; Vif TR-FRET = ·; Ecoli rRNA inh OD600 = -5; HNF4A DNA FP = -0.9; ALR H2O2 inh = 85*
# `CNC(=O)C[C@@H]1CC[C@@H]2[C@H](COc3ccc(NC(=O)Nc4ccccc4)cc3C(=O)N2C)O1` across the screens: Ecoli growth = ·; Ecoli rRNA inh = 4; FGF22 binding = i; MLL AF4-AF9 inh = -2.3; Ecoli rRNA inh RFP = 1.8; Vif TR-FRET = ·; Ecoli rRNA inh OD600 = 11; HNF4A DNA FP = ·; ALR H2O2 inh = ·
# `O=C(NCc1cccc(F)c1)C1CCC(=O)N(CCc2cccc(F)c2)C1` (configuration not stated) across the screens: Ecoli growth = 0.67; Ecoli rRNA inh = -1; FGF22 binding = i; MLL AF4-AF9 inh = -2.0; Ecoli rRNA inh RFP = 3.5; Vif TR-FRET = -5%; Ecoli rRNA inh OD600 = -2; HNF4A DNA FP = 2.5; ALR H2O2 inh = -5

# Next section:
smiles	Ecoli growth	Ecoli rRNA inh	FGF22 binding	MLL AF4-AF9 inh	Ecoli rRNA inh RFP	Vif TR-FRET	Ecoli rRNA inh OD600	HNF4A DNA FP	ALR H2O2 inh
COc1cc(C(C)=O)ccc1OCC(O)Cn1nc(C)c(C(C)=O)c1C (configuration not stated)	0.69	13	i	2.8	0.2	?	8	3.5	-14
COC(=O)c1cc(S(=O)(=O)N2CCN(c3ccccc3)CC2)c[nH]1	0.78	3	i	?	0.4	·	12	-2.0	-10
CCOc1ccc(-n2c(SCC(=O)N3CCc4ccccc43)nnc2-c2c[nH]c3ccccc23)cc1	0.7	13	i	-0.1	2.2	11%	13	38*	0
C[C@@H]1CN([C@@H](C)CO)C(=O)c2cc(NC(=O)C3CCCCC3)ccc2O[C@@H]1CN(C)CC1CCCCC1	·	0	i	-1.3	-1.2	·	-5	·	·
NC(=O)c1c(NC(=O)CN2C(=O)NC(Cc3ccccc3)C2=O)sc2c1CCC2 (configuration not stated)	0.66	-1	i	-0.7	14	·	-3	-0.4	·
C[C@@H]1CN([C@@H](C)CO)C(=O)c2cc(NS(=O)(=O)c3cccs3)ccc2O[C@@H](C)CCCCO[C@H]1CN(C)S(=O)(=O)c1cn(C)cn1	·	-2	i	-1.6	-5.4	·	-5	·	·
O=C(Nc1ccc(F)cc1)c1ccc(C(=O)N2CCOCC2)cc1	0.67	14	i	·	0.2	·	10	-6.9	99*
COc1ccc(/C=N\NC(=O)c2ccccc2Cl)cc1COc1c(F)c(F)c(F)c(F)c1F	·	-3	i	0.4	-0.8	6%	-3	2.3	0
Cc1ccc(S(=O)(=O)N[C@H]2CC[C@@H](CC(=O)N3CCC(Cc4ccccc4)CC3)O[C@@H]2CO)cc1	·	0	i	0.7	40	·	-19	·	·
CNC[C@H]1OCCCC[C@@H](C)Oc2ccc(NC(=O)Nc3ccc(F)cc3)cc2C(=O)N([C@H](C)CO)C[C@H]1C	·	0	i	2.1	1.5	·	-2	·	·

# 2 entries drawn at random from the list so far, as already listed:
smiles	Ecoli growth	Ecoli rRNA inh	FGF22 binding	MLL AF4-AF9 inh	Ecoli rRNA inh RFP	Vif TR-FRET	Ecoli rRNA inh OD600	HNF4A DNA FP	ALR H2O2 inh
COC(=O)c1cc(S(=O)(=O)N2CCN(c3ccccc3)CC2)c[nH]1	0.78	3	i	?	0.4	·	12	-2.0	-10
COc1ccc(/C=N\NC(=O)c2ccccc2Cl)cc1COc1c(F)c(F)c(F)c(F)c1F	·	-3	i	0.4	-0.8	6%	-3	2.3	0

# Other results.
smiles	Ecoli growth	Ecoli rRNA inh	FGF22 binding	MLL AF4-AF9 inh	Ecoli rRNA inh RFP	Vif TR-FRET	Ecoli rRNA inh OD600	HNF4A DNA FP	ALR H2O2 inh
Cc1c(CNC2CCCC(C)C2C)c(C(=O)O)c(C)n1Cc1ccccc1 (configuration not stated)	0.74	·	·	·	·	3%	·	1.6	-10
O=C(Cc1ccc(S(=O)(=O)N2CCOCC2)s1)N1CCN(S(=O)(=O)c2ccccc2[N+](=O)[O-])CC1	0.68	-7	i	1.0	-1.1	·	1	4.6	·
CCN=C1SC(CC(=O)Nc2ccc(N3CCOCC3)cc2)C(=O)N1CC (configuration not stated)	0.74	·	·	·	·	1%	·	-1.0	-2
C/C=C/c1ccc([C@@H]2[C@@H](CN(CC)C(=O)CC)N(C(=O)C3CCC3)[C@H]2CO)cc1	·	-4	i	-3.5	-0.9	·	-1	·	·
CC(NC(=O)Cc1cccs1)c1ccc2c(c1)OCO2 (configuration not stated)	0.72	2	i	-1.7	-3.5	13%	1	-0.3	1
CCCS(=O)(=O)N1CCCC(c2nc(-c3cccc(OC)c3)no2)C1 (configuration not stated)	0.64	·	·	·	·	2%	·	-0.2	-13
Cc1ccc(NC2CCCN(C(=O)c3ccnc(Cl)c3)C2)cc1C (configuration not stated)	0.66	-1	i	5.6	-4.7	·	-1	1.5	96*
Cc1cc(NC(=O)c2cccc(Cl)c2)n[nH]1	0.59	9	i	0.4	-8.7	·	9	-1.1	·

# Only part of the results is shown, so the mix of outcomes need not match the whole.
